High-throughput results (PubChem)
PINK1 expr mod: changes PINK1 expression. PINK1 immunofluorescence, high-content cytometry, 24 h. Potency, µM (doses to about 76.6 µM), inactives show at the top dose activation (PINK1 increase), hits mostly activators. 410,000 compounds, 0.2% hits. AID 624263; active = well fitted activation curve with a large enough effect; inconclusive = small, poorly fitted or top-dose-only effect; inactive = flat fitted curve, though single readings scatter; cell line not stated here;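 note: potency is the fitted concentration of half-maximal effect; % of control where 0% means no effect; nearly all actives have a fitted effect of over 65% in size; a mitochondrial uncoupler was the plate control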
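Readout is PINK1 immunofluorescence, quantified alongside mitochondrial, cell and nuclear markers by laser-scanning microplate cytometry. Cells from a stable line were exposed to compound titrations (5 concentrations) for 24 hours, with CCCP controls.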
gsp agonist: activates gsp, the McCune-Albright syndrome mutation | gsp mutant cells, cAMP HTRF, 30 min; control for the full effect not named in the record | Potency, µM (titrated, usually from 76.9 µM), without a hit: at the highest dose activation (cAMP increase), most hits filed as activators | 340,000 compounds, 0.13% hits; active = well fitted activation curve with a large enough effect; inconclusive = small, poorly fitted or top-dose-only effect, or another doubt; inactive = no such curve, though single readings can be large or run the other way; cell line not stated here;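 note: phosphodiesterase inhibitor Ro 20-1724 added with compounds to block cAMP breakdown; potency is the fitted concentration of half-maximal effect; nearly all actives have a fitted effect of over 60% in size; about a fifth of the inactives were tested at one dose only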
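Cells stably selected in G418 were plated at 2000/well, grown 16-24 hr, then given compounds in DMSO with the PDE inhibitor […] (300 uM solution added) for 30 min at 37C; cAMP was read by HTRF.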
Sfp PPTase inh: Sfp phosphopantetheinyl transferase inhibition | Q9F4F7 | Biochemical Sfp PPTase activity, qHTS | Potency, µM, for inactives: max response, negative = inhibition, hits mostly inhibitors | 310,000 compounds, 3.5% hits | AID 1490; active = well fitted inhibition curve with a large enough effect; inconclusive = small, poorly fitted or top-dose-only effect, or another doubt; inactive = no such curve, though single readings can be large or run the other way;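 note: the enzyme is Sfp with the accession as filed and its product quenches rhodamine fluorescence; potency is the fitted concentration of half-maximal effect; 0% = enzyme reaction without inhibitor and -100% = no enzyme wells; top concentration of the series not given in the record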
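Compounds were incubated with enzyme (final 15 nM) for 15 min at room temperature before substrate addition started the reaction. Fluorescence at 525 nm excitation, 598 nm emission was recorded immediately and after 30 minutes.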
D2 agonist: agonists of human D2 dopamine receptor (beta-arrestin) | P14416 | DiscoveRx PathHunter D2 beta-arrestin, luminescence, 90 min; 100% = 57 uM dopamine signal | activation, % (concentration not given with the values) | 360,000 compounds, 0.084% hits | AID 624465; in the data active = activation above about 40%; inconclusive = about 15% to 40%; inactive = below about 15%; note: the text of the record calls up to 30% inactive
Target sequence (P14416 whole entry, looked up): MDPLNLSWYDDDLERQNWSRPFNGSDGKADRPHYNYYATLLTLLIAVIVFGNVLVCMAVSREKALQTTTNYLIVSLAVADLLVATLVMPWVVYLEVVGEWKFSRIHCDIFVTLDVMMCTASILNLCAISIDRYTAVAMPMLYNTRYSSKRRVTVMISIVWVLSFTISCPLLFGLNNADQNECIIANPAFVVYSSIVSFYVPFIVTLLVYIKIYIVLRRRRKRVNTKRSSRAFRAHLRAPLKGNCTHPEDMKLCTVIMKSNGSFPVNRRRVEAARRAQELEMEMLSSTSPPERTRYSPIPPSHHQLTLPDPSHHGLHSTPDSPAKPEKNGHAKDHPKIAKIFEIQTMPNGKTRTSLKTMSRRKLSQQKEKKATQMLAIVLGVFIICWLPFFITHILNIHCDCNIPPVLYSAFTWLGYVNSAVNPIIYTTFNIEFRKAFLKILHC
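DiscoveRx PathHunter D2 beta-arrestin cells (2,100/well) attached overnight, then compound-stimulated 90 min at 37 C in HBSS/10 mM HEPES/0.1% Tween-20 buffer; beta-galactosidase complementation read by luminescence after 1 h at ambient temperature. Dopamine 57 uM final (EC100) as control.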
gsp antag: antagonists of gsp mutant (McCune-Albright syndrome); gsp-mutant cells, cAMP HTRF, 30 min; control for the full effect not named in the record; Potency, µM (titrated, usually from 76.9 µM), inactives show top-dose activity change, negative = inhibition, most hits filed as inhibitors; 340,000 compounds, 0.4% hits; AID 624288; active = falling curve of any shape with a large fitted effect; inconclusive = falling curve, mostly with a smaller effect; inactive = flat or rising curve; cell line not stated here;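 note: intracellular cAMP measured with PDE inhibitor Ro 20-1724 present during compound exposure; potency is the fitted concentration of half-maximal effect; % is set by controls: 0 for no effect and ±100 for the full control effect; nearly all actives have a fitted effect of over 65% in size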
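HTRF cAMP read-out (cAMP-d2 plus anti-cAMP antibody-K in lysis buffer, 30 min RT). Before lysis, cells are exposed to compounds with […] for 30 min at 37C in DPBS containing Ca/Mg, BSA and Tween 20.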
ClpP mod: qHTS Assay for Activators of ClpP | AID 651965, 2013 | 340,000 compounds, 1.9% hits | purified B. subtilis ClpP, FRET peptide cleavage, 20 min | Potency, µM (highest dose often 57.5 µM), for the others: top-dose activity change, negative = active | ATP-dependent Clp protease proteolytic subunit (Bacillus subtilis (strain 168)), P80244; active = well fitted falling curve with a large enough effect; inconclusive = small, poorly fitted or top-dose-only effect; inactive = no such curve, though single readings can be large or run the other way; note: potency is the fitted concentration of half-maximal effect; the source files actives as falling curves though it sought activators and does not explain the sign; nearly all actives have a fitted effect of over 65% in size; many hits overshoot -100%
Target sequence (P80244 whole entry, looked up): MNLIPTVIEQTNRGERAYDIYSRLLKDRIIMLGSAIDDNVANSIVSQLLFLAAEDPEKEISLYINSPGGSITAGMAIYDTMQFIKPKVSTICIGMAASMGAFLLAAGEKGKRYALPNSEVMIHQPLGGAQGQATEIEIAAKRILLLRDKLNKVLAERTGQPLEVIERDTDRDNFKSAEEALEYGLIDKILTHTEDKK
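FRET quenching reversal measured ClpP activation: 10 microg/mL B. subtilis ClpP at pH 8 with the FRET-FV decapeptide, read at 430 nm after 320 nm excitation. The 20-min minus 0-min signal was scaled between DMSO/no-enzyme wells and ADEP (5.8 microM final).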
Menin MLL FP FL: inhibitors of human menin-MLL interaction, wild-type MLL peptide. Fluorescence polarization, fluorescein-MLL peptide displacement from menin. 290,000 tested, under 10 active. FP activity change, % at 61.4 µM. AID 1766; inconclusive = falling polarisation curve, or a change in total fluorescence; inactive = total fluorescence flat and polarisation flat or rising; no compound was filed as active; the % refers to the polarisation; negative = inhibition;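 note: % of control where 0% means no effect; inhibitors lower the polarisation; unlabelled MLL peptide was the positive control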
The depositor's hits bear a star; ? = inconclusive; . = not tested or not shown; & = joins results of further samples; [ ] = remark or other dose. Compounds as they come. Share with any hit: about 5.1%.

A first look, 3 compounds:
SMILES	PINK1 expr mod	gsp agonist	Sfp PPTase inh	D2 agonist	gsp antag	ClpP mod	Menin MLL FP FL
COc1ccc(N/C=C(\C=C\C#N)S(=O)(=O)c2ccccc2)cc1	?	26%	4%	-8.2	3%	-3.7%	1.2
Cc1ccc(CCNC(=O)C2CCN(S(=O)(=O)c3ccc4c(c3)oc(=O)n4C)CC2)cc1	-1.6%	-17%	12%	-0.3	1%	-0.4%	-0.7
CCOC(=O)c1c(-c2ccccc2)csc1NC(=O)c1cc(-c2ccccc2OC)on1	0.1%	8%[15.4 µM]	.	-2.8	-9%	.	.

The list itself, previewed entries included:
SMILES	PINK1 expr mod	gsp agonist	Sfp PPTase inh	D2 agonist	gsp antag	ClpP mod	Menin MLL FP FL
COc1ccc(N/C=C(\C=C\C#N)S(=O)(=O)c2ccccc2)cc1	?	26%	4%	-8.2	3%	-3.7%	1.2
Cc1ccc(CCNC(=O)C2CCN(S(=O)(=O)c3ccc4c(c3)oc(=O)n4C)CC2)cc1	-1.6%	-17%	12%	-0.3	1%	-0.4%	-0.7
CCOC(=O)c1c(-c2ccccc2)csc1NC(=O)c1cc(-c2ccccc2OC)on1	0.1%	8%[15.4 µM]	.	-2.8	-9%	.	.
O=C(/C=C/c1ccco1)NCc1ccc2c(c1)OCO2	1.4%	?	?	-6.2	-9%	-0.8%	14
COc1ccc(-n2c(C)cc(C(=O)CSc3nnc(-c4ccoc4C)n3C)c2C)cc1	-1.6%	21%	-5%	-1.7	-5%	-1.0%	2.6
O=C(O)Cc1c[nH]c2cccc(O)c12	0.9%	.	?	5.0	2%	-0.1%	-2.1
COc1ccc(-c2nc(SC(CC(=O)NCc3ccccc3)c3ccc(OC)c(OC)c3)n[nH]2)cc1 (stereo not drawn)	-0.4%	2%	7%	-5.2	11%	-2.8%	1.7
CC1(C)Oc2cc3oc(C(=O)O)cc(=O)c3cc2-c2ccccc21	0.0%	-8%	.	-6.1	.	?	.
COc1ccc(NCC(=O)Nc2c(C)cccc2C)cc1S(=O)(=O)N1CCOCC1	0.9%	23%	.	-0.6	.	-0.9%	.
CC1(C(=O)NCc2ccccc2Br)CCN1Cc1c(F)cccc1F (stereo not drawn)	2.7%	.	.	-1.9	.	1.0%	.
CC1CCc2nn(CC(=O)NCc3ccc4c(c3)OCO4)cc2C1 (stereo not drawn)	-0.7%	17%	17%	1.6	-5%	-2.0%	2.6
COc1cc2c(C)nc3onc(-c4ccccc4)c3c2cc1OC	1.8%	15%	14%	-3.7	-24%	-7.3%	1.7
COc1ccc(-n2c(Cn3c(=O)sc4ccccc43)nnc2SCC(=O)N2CCCC2)cc1	1.6%	-17%	2%	-6.4	-3%	2.1%	-0.9
O=C(C1CC1)N1CCc2cc(Br)cc(S(=O)(=O)N3CCCCCC3)c21	6.8%	11%	10%	-1.4	-35%	0.7%	-0.7
Fc1ccccc1COc1ccc(/C=N/NC(=S)NCc2ccccc2)cc1	9.8%	-47%[inhibitor]	27%	-2.3	5%	57%	-0.2
COc1ccc(-n2c(SCc3ccc([N+](=O)[O-])cc3)nnc2-c2ccc(C)cc2)cc1	0.3%	9%	2%	-1.9	?	-2.8%	-0.5
COCCCN1C(=O)C(CC(=O)NC2CCCCC2)CC(C(=O)N(C(C)C)C(C)C)=C1C (stereo not drawn)	-0.4%	.	.	-3.4	.	1.1%	.
CCCn1c(C)cc(C(=O)COC(=O)c2cc(S(=O)(=O)NCC(C)C)c(Cl)cc2Cl)c1C	6.4%	-12%	5%	-0.9	-17%	1.2%	-2.3
COc1ccc(CCNC(=O)Cn2cc(C(F)(F)F)cc(Cl)c2=O)cc1	3.5%	-48%[inhibitor]	12%	-0.3	10%	-8.1%	.
c1ccc(-c2nnsc2-c2ccccc2)cc1	-0.2%	14%	12%	5.1	-2%	1.2%	-7.4
CC(=O)N1N=C(c2ccco2)CC1c1ccc(C)cc1 (stereo not drawn)	-1.5%	4%[15.4 µM]	-10%	2.3	8%	?	.
CC(=O)N1CCN(c2ccc(S(C)(=O)=O)cc2[N+](=O)[O-])CC1	1.5%	10%[15.4 µM]	18%	2.8	-2%	-1.7%	-1.5
O=C(c1csnn1)N1CCC2(CC1)CCN(c1ccncc1)CC2	0.5%	.	-1%	.	.	.	2.4
COc1cc(F)ccc1-c1csc(C(NC(C)=O)c2ccc(F)c(F)c2)n1 (stereo not drawn)	9.5%	.	.	-7.7	.	2.2%	.
COc1cc(C(=O)N2CCN(C(=O)C3CCCO3)CC2)cc(OC)c1OC (stereo not drawn)	0.0%	-37%[inhibitor]	.	-2.4	-4%	0.5%	.
COc1cc(Br)cc2cc(C(=O)N3CCN(C(=O)c4ccco4)CC3)c(=O)oc12	-0.7%[38.3 µM]	8%	-9%	-0.8	-2%	-0.4%	-2.6
Cc1cc2c(=O)n(Cc3ccco3)c(SCC(=O)c3ccc(Cl)s3)nc2s1	?	13%	18µM*	-1.7	-7%	-1.3%	?
OC[C@@H]1CN(Cc2ccccc2)C[C@H](n2cnc3c(N4CCCC4)ncnc32)O1	-0.3%	.	.	-1.4	.	-1.7%	.
Cc1cc(C)c(C#N)c(Nc2ccc3c(c2)OCCO3)n1	1.1%	0%	36%[activator]	-2.7	-10%	4.7%	1.2
NC(=O)C1CCCNC1 (stereo not drawn)	-0.2%	.	-1%	-0.3	8%	2.8%	5.2
CCN(c1ccccc1)S(=O)(=O)c1ccc(OC)c(NC(=O)CNCCc2ccccc2)c1	0.7%	-8%[15.4 µM]	16%	5.2	-28%	.	-0.2
Cc1ccc(NC(=O)CC(C)S(=O)(=O)c2ccc3c(c2)NC(=O)CO3)c(Cl)c1 (stereo not drawn)	0.0%&2.8%	?	4%	-4.7	-15%	-0.9%&1.2%	.
CCOC(=O)C1CCCN(C(=O)C(CCSC)NC(=O)COc2ccccc2)C1 (stereo not drawn)	0.9%	9%	.	-0.6	3%	-4.4%	.
CCOC(=O)COc1cc(N)c(Cl)cc1Cl	0.0%	-10%[15.4 µM]	22%	-0.9	0%	.	-0.9
CCCn1nc2cc(C(=O)NCC34CC5CC(CC(C5)C3)C4)ccc2c1OCC	8.7%	.	-2%	-0.2	-14%	3.9%	3.5
COc1ccc(/C=C/c2nc3ccccc3c(=O)o2)cc1	0.4%	-3%[15.4 µM]	12%	3.5	?	.	0.3
CCOC(=O)N1CCN(C(=O)CCC2CCCC2)CC1	1.6%	0%	14%	2.3	12%	.	-1.0
O=C(COC(=O)c1cnccn1)c1ccc(Cl)c([N+](=O)[O-])c1	0.5%	-5%[15.4 µM]	4%	-18	-4%	-4.9%	0.7
C=CCn1cc(C(=O)NCCN(CC)CC)c(=O)c2cc(S(=O)(=O)N3CCCCCC3)ccc21	-1.6%	?	6%	1.4	-14%	-0.7%	2.1
Oc1ccc(NCc2ccccc2OCc2ccccc2)cc1	?	0%	25µM*	?	7%	-8.6%&0.9%	?
CC(C)n1nc(C(=O)Nc2nnc(SCc3c(Cl)cccc3Cl)s2)c2ccccc2c1=O	5.6µM*	13%	11%	-2.8	?	-14%	3.9
COc1cc(C(=O)N2CC(C)OC(C)C2)c([N+](=O)[O-])cc1OC (stereo not drawn)	?	-8%	-1%	-0.2	-9%	0.7%	2.1
CCC(=O)N1C(C(=O)O)CSC1c1ccc(OC)cc1 (stereo not drawn)	2.4%	?	-4%	1.6	7%	1.2%	2.5
COc1ccc2cc(C3(C)NC(=O)N(CC(=O)N4CCCCC4)C3=O)ccc2c1 (stereo not drawn)	0.1%	-19%	.	1.9	0%	.	.
O=[N+]([O-])c1ccc(/C=N/NC2=NS(=O)(=O)c3ccccc32)cc1	-0.6%	-23%	-1%	1.6	-11%	-1.0%	1.5
COc1ccc(C2SCCN2S(=O)(=O)c2ccccc2)cc1OC (stereo not drawn)	-0.6%	-28%	-7%	-1.3	-5%[15.4 µM]	2.1%	0.5
O=C(CSc1nnc(-c2ccccc2)n1C1CCCCC1)Nc1ccc(S(=O)(=O)Nc2ccccn2)cc1	-2.2%	-17%	1%	-2.4	-6%	-23%	3.6
CCn1c(C)c(C(C)=O)c(N2CCN(C(=O)c3ccco3)CC2)nc1=S	1.3%[38.3 µM]	0%	19%	1.9	5%	1.1%	2.5
Cc1ccc([N+](=O)[O-])cc1S(=O)(=O)Nc1ccccn1	0.4%	5%	10%	-2.9	0%	.	-0.9
COc1ccccc1NC(=O)c1cc([N+](=O)[O-])ccc1N1CCOCC1	1.5%	-53%[inhibitor]	7%	-3.5	-9%	-0.3%	1.1
Cc1ccc(N2C(=O)CSCC2=O)cc1	0.7%	-3%	4%	0.2	4%	-1.4%	-0.7
CCC(=O)Nc1ccc(S(=O)(=O)NC[C@H]2O[C@@H](n3cc(C)c(=O)[nH]c3=O)C[C@@H]2O)cc1	-0.7%	3%	.	0.6	.	-0.9%	.
Cc1ccc(S(=O)(=O)C2(C(=O)N3CCN(C4CCCCC4)CC3)CC2)cc1	-0.1%[38.3 µM]	5%	4%	-2.1	0%	0.9%	0.0
C[C@H](CO)N1C[C@H](C)[C@@H](CN(C)C(=O)Nc2ccccc2)Oc2ccc(NC(=O)Cc3ccccc3)cc2C1=O	0.1%	8%	.	0.4	5%	1.8%	.
CCOC(=O)c1ccccc1NC(=O)CSc1nnnn1C1CCCCC1	0.0%[38.3 µM]	-10%	-12%	-2.6	-8%	-26%	0.2
O=C(Nc1ccccc1)N(Cc1ccccc1)C1=NCCS1	0.3%	-1%	15%	-1.4	0%	-1.3%	-2.6
CCN1CCN(CCNC(=O)C2CCCN(Cc3nc(-c4cccc(Cl)c4)oc3C)C2)CC1 (stereo not drawn)	12%	-24%	0%	1.5	3%	-1.5%	0.6
Cc1ccc(S(=O)(=O)n2nc(C)cc2C)cc1	10%[38.3 µM]	22%	23%	0.1	9%	0.5%	1.8
